# VDR inh: blocks the human vitamin D receptor | P11473 | Potency, µM, without a hit: max response, negative = inhibition, most hits filed as inhibitors | VDR-SRC2-3 peptide fluorescence polarization, 2 h | 400,000 compounds, 0.93% hits; active = well fitted inhibition curve with a large enough effect; inconclusive = small, poorly fitted or top-dose-only effect, or another doubt; inactive = no such curve, though single readings can be large or run the other way; also: series mostly up to about 120 µM
# Target sequence (P11473 whole entry, looked up): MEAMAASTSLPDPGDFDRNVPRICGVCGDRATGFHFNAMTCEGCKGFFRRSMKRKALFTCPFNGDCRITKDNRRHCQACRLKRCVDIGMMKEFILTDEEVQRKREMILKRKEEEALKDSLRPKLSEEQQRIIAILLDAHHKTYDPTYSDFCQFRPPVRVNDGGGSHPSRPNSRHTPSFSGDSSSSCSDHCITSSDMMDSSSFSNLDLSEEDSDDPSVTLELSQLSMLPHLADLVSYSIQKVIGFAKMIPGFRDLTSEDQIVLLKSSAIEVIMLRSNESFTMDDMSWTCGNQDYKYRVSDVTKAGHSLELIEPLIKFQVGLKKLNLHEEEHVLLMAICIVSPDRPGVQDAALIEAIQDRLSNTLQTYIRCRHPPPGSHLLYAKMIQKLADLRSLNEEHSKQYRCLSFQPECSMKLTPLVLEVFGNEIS
#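 Compounds are added to VDR with labelled SRC2-3 coactivator peptide and held 2 h at room temperature. Inhibition of the VDR–peptide interaction is then read as a change in fluorescence polarization.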
# Active calls of the source: *; ? = inconclusive; & = joins results of further samples. % is scaled to controls: 0 for no effect and ±100 for the full control effect; potency is read from the fitted curve at half-maximal effect. Some of the compounds tested (hit frequency here may not be typical).
SMILES,VDR inh
Cc1cccc(N2CCN(c3nc(C)cc(C)c3C#N)CC2C)c1 (centres undefined),1.8%
CN(Cc1ccccc1NS(=O)(=O)c1ccc2ccccc2c1)C1CCCCC1,0.6%
O=C(Cn1c(=O)oc2ccccc21)NCc1cccc(Cl)c1,-5.8%
COc1cccc(NC(=O)C2CCN(c3nnc(-n4c(C)ccc4C)s3)CC2)c1,7.8%
CC(=O)Nc1ccc(N/C=C/C(=O)C(C)(C)C)cc1,-0.4%
O=C(NNC(=O)C(O)c1ccccc1)NC1CCCCC1 (centres undefined),-4.9%
Cc1cc(C)nc(NC(=O)CSc2nn(C)c(=S)s2)n1,-2.7%
Cc1ccc(C(=O)N2CCOCC2)cc1S(=O)(=O)N1CCOCC1,-9.4%
CCCCCCCCCCCCC/C=C/C(O)C(COP(=O)(O)OCCN)NC(=O)CCCCCCCCCCCCCCCCC (centres undefined),-0.9%
CCN(CC)C(=S)Nc1ccc([N+](=O)[O-])cc1,-20.1%
Cc1ccc(NC(=O)c2onc(C)c2Cl)cc1,3.0%
O=C(CSc1nc2cc(Cl)ccc2s1)c1cc2ccccc2o1,27.7%
COc1ccc(-n2nc(C(=O)N(C)C)nc2-c2ccccc2)cc1,9.9%
CCCNC(=S)Nc1ccc(CC(=O)OC)cc1,9.7%
O=C(C1CCN(S(=O)(=O)c2cccnc2)CC1)N1CCN(c2ccccc2Cl)CC1,18.1%
N#Cc1c2n(c3c(N)ncnc13)CCCCC2,-13.5%
COc1cc(CNC(C)C23CC4CC(CC(C4)C2)C3)ccc1OCC(=O)NC(C)(C)C (centres undefined),3.9%
O=C(NCCOc1ccccc1Cl)c1cccc2c1C(=O)c1ccc(Cl)cc1S2(=O)=O,-13.1%
COc1ccc(C(=O)NCCS(=O)(=O)N2CCc3ccccc3C2)cc1,-6.5%
Nc1nnc(SCc2cccc(C(F)(F)F)c2)s1,11.8%
CC1(C)CC(=O)C(N=Nc2cc(S(=O)(=O)N3CCOCC3)ccc2Cl)=C(O)C1,-7.9%
CCOC(=O)Cn1nc(/C=C/c2ccc(C)cc2)ccc1=O,2.2%
COC(=O)c1c(NC(=O)CN(c2ccc(C)c(C)c2)S(C)(=O)=O)sc2c1CCCC2,18.0%
CCOc1cc(C=O)ccc1OCCCN1C(=O)NC(C)(C)C1=O,4.1%
Cc1cccc(CCN(C(=O)c2snc(C(N)=O)c2N)C(C(=O)NCC2CCCO2)c2ccc(F)cc2)c1 (centres undefined),14.1%
Cn1c(=O)c2[nH]c(SCc3cccnc3)nc2n(C)c1=S,-7.5%
Cc1ccc2oc3c(c(=O)c2c1)C(c1ccc(F)cc1)N(c1nc(C)c(C)s1)C3=O (centres undefined),5.5%
O=[N+]([O-])c1cccc(C(=Nc2ccccc2Cl)NO)c1,-7.9%
CC(OC(=O)CN1C(=O)c2ccccc2C1=O)C(=O)NC1CCCC1 (centres undefined),14.2%
Cn1nc(C(=O)Nc2ccc(S(=O)(=O)N3CCCCC3)cc2)c2ccccc2c1=O,-0.7%
CN(C(=O)c1cccc(NC(=O)Cc2ccc(NC(=O)C3CCCN(C(=O)C4CCC4)C3)cc2)c1)C1CC1 (centres undefined),-4.0%
Cc1ccc(-c2cn(-c3cccc(Cl)c3)c(S(=O)(=O)CC(=O)Nc3ccccc3F)n2)cc1,?
COCCN(CC1CCCN(C2Cc3ccccc3C2)C1)C(=O)CCC(C)=O (centres undefined),?
COc1ccc(OC)c(NC(=S)N2CCCC2)c1,4.0%
O=C(CSc1oc(-c2ccccc2)nc1S(=O)(=O)c1ccc(Cl)cc1)c1ccccc1,-4.1%
CCOC(=O)N1CCC(NC(=O)c2cnn3c2NC(c2ccco2)CC3C(F)(F)F)CC1 (centres undefined),-10.3%
COc1ccc(C2C(C(=O)N3CCN(C)CC3)c3ccccc3C(=O)N2C2CCCCC2)cc1 (centres undefined),5.2%
COc1cc(C(=O)OCCCN2CCCN(CCCOC(=O)c3cc(OC)c(OC)c(OC)c3)CC2)cc(OC)c1OC,0.1%&7.5%&7.8%&7.5%
CCN(CC)c1ccc(/C=N/NC(=O)Nc2nonc2N)cc1,-27.1%
COc1ccc(NS(=O)(=O)c2ccc(N/N=C/c3ccc(N4CCOCC4)cc3)c([N+](=O)[O-])c2)cc1,5.7%
COC(=O)c1sc(NC(=O)CCCn2nc([N+](=O)[O-])cc2C)c(C(=O)OC)c1C,-0.6%
Cc1nn(C)cc1C(=O)Nc1ccc2c(c1)OCCO2,-6.9%
Nc1ncnc2c1nc(Cl)n2C1OC(CO)C(O)C1O (centres undefined),10.9%
C/C(=N\NC(=S)NC(C)C)c1ccc2c(c1)OCCO2,13.1%
CC1CCCN(CCCNC(=O)CN2C(=O)COc3ccccc32)C1 (centres undefined),17.2%
S=C(NCc1ccco1)Nc1ccc(Oc2ccc(Cl)cc2)cc1,-7.6%
CCOc1ccc(-n2c(C)nc3cc(C(=O)NCCN4CCOCC4)ccc32)cc1,-6.5%
O=C(COc1ccccc1Cl)NCCc1ccc2c(c1)OCCO2,-1.2%
O=S(=O)(Cc1ccccc1)N1CCN(Cc2ccccc2)CC1,-3.0%
O=C(Nc1cc(Cl)ccc1N1CCOCC1)c1cccnc1Cl,-7.1%

# Next part.
SMILES,VDR inh
CCOC(=O)N1CCN(CCC(=O)Nc2ccccc2OC)CC1,2.3%
Cc1ccc(C(=O)N(Cc2nnc(-c3ccc(Cl)cc3)o2)C2CC2)o1,2.6%
O=C(Nc1cccnc1)C1CC(=O)N(c2ccc(F)cc2)C1 (centres undefined),-12.4%
COc1ccc(-c2nnc(SCCC(=O)O)n2-c2ccccc2)cc1OC,-10.6%
Cc1cccc(CNc2nc(-c3c(C)noc3C)nc3ccccc23)c1,-0.1%
O=c1[nH]c(CN2CCN(Cc3ccccc3)CC2)nc2scc(-c3ccccc3)c12,13.4%
Cc1ccc(NC(=S)NCC(C)C)cc1,-6.3%
CCCSc1nc2sc3c(c2c(=O)n1-c1ccccc1)CCC(C)C3 (centres undefined),-7.2%
Cc1noc(C)c1C(=O)N1CCC2(CCCN(c3ncccn3)C2)CC1,-1.2%
CN(Cc1ccccc1)C(=O)c1ccc(NC(=O)Cc2ccc(NC(=O)C3CCCN(C(=O)c4ccccc4)C3)cc2)cc1 (centres undefined),-3.5%
COc1ccc(/C(N)=N/OC(=O)c2ccc3c(c2)OCO3)cc1,-3.4%
CCC(=NCCN1CCNCC1)C1=C(O)CC(C)(C)CC1=O,-5.2%
c1ccc(C(Cc2nc(-c3cccnc3)no2)c2ccccc2)cc1,24.0%
Cc1ccc(C)c(C(=O)CCC(=O)Nc2ccc(F)cc2)c1,1.6%
Cc1ccc(NC(=O)Cn2cc(C=O)c3ccccc32)cc1C,?
N#Cc1c(N)nc2c3c(sc(=N)c2c1N)NC(=O)CC3c1ccccc1Cl (centres undefined),0.9%
Cc1cccc(C)c1N1CCN(S(=O)(=O)c2ccc(F)cc2)CC1,-16.9%
CCOc1cc(N2CCOCC2)c(OCC)cc1NC(=O)Cc1cn2ccsc2n1,6.8%
Cc1cc(Cl)ccc1Oc1nc(-c2ccccc2)ncc1S(C)(=O)=O,12.6%
CCc1cccc(C)c1NC(=O)Cn1c(NCCO)nc2ccccc21,-23.4%
CCO[C@H]1OC(C(=O)O)=C[C@@H](c2ccc(C(F)(F)F)cc2)[C@@H]1CCCO,-8.9%
COc1ccccc1CNC(=O)COc1ccc(S(=O)(=O)N2CCOCC2)cc1,-8.3%
CCN(CC(=O)Nc1ccc(NC(C)=O)cc1)CC(=O)Nc1cc(C)on1,-1.5%
CCOc1ccccc1OCC(=O)NNC(=S)NC1CCCCC1,-8.8%
COc1ccccc1/C=C/CN1CCCCC1,-16.3%
Nc1ncnc(Nc2ccccc2Cl)n1,-21.2%
C=CCN(CC=C)c1ncnc2[nH]ncc12,18.1%
CCOC(=O)c1c(C)[nH]c(C)c1S(=O)(=O)NC1CCN(C(=O)OCC)CC1,-5.4%
Cc1[nH]n(-c2ccccc2)c(=O)c1C(c1ccc(C(=O)O)cc1)c1c(C)[nH]n(-c2ccccc2)c1=O,-10.6%
COc1ccc(NC(=O)c2cc3c([nH]c2=O)CC(c2ccccc2)CC3=O)cc1 (centres undefined),7.0%

# Entries from the list above with a nitro group on carbon (four):
SMILES,VDR inh
CCN(CC)C(=S)Nc1ccc([N+](=O)[O-])cc1,-20.1%
O=[N+]([O-])c1cccc(C(=Nc2ccccc2Cl)NO)c1,-7.9%
COc1ccc(NS(=O)(=O)c2ccc(N/N=C/c3ccc(N4CCOCC4)cc3)c([N+](=O)[O-])c2)cc1,5.7%
COC(=O)c1sc(NC(=O)CCCn2nc([N+](=O)[O-])cc2C)c(C(=O)OC)c1C,-0.6%

# Following part:
SMILES,VDR inh
Cc1cc(NS(=O)(=O)c2ccc(NC(=O)COc3ccc(Br)cc3)cc2)nc(C)n1,?
Cc1ccc(C(=O)CSc2nnc(-c3snnc3C)n2C2CC2)cc1,-9.7%
CC1CN(C(=O)/C(C#N)=C2\N=C(NC(=O)c3ccc(F)cc3)c3ccccc32)CC(C)O1 (centres undefined),-2.0%
COc1cc(S(=O)(=O)N2CCOCC2)ccc1NC(=O)COc1ccc(N(C)S(=O)(=O)c2ccc(C)cc2)cc1,-3.7%
CCC1(CC)C(=O)C2=C3C1[C@H](C(=O)OC)CC(C(=O)OC)C[C@H]3n1c(=O)n(C)c(=O)n1[C@H]2C (some centres undefined),16.7%&-16.5%
O=C(O)C1=C[C@H](c2ccccc2)C[C@H](OCc2ccc(CO)cc2)O1,-12.2%
NC(=O)C1CCN(C(=O)c2ccc(Oc3ccccc3)cc2)CC1,-2.7%
O=C(NC1CCCCC1)C(c1ccccc1)N(C(=O)c1csnn1)C1CCCC1 (centres undefined),-4.5%
Cc1ccc([N+](=O)[O-])cc1NC(=O)C1CCN(S(C)(=O)=O)CC1,-3.6%
COCc1cc(=O)n2[nH]c(C)cc2n1,-5.7%
Cc1ccc(Cn2cc(C(=O)c3ccc(F)cc3)c(=O)c3cc4c(cc32)OCCO4)cc1,12.3%&-11.9%
CCSc1ccccc1C(=O)Nc1cccc(OC)c1,0.7%
Cn1c(=O)oc2cc(S(=O)(=O)N3CCC(C(=O)N4CCN(c5ccccc5)CC4)CC3)ccc21,2.4%
CCCCCCCCCCCCCC(=O)O[C@H](CC(=O)O)C[N+](C)(C)C,?
Cc1ccc(CNC(=O)C2(NC(=O)Nc3ccc(C)cc3)CCCCC2)cc1,6.4%
COCC(C)NS(=O)(=O)c1ccc(NC(=O)c2ccccn2)cc1 (centres undefined),-12.9%
O=C(CN1C(=O)c2ccccc2S1(=O)=O)NCCc1ccccc1,8.3%
CC/C(=N\NC(=O)Nc1ccccc1)c1ccccc1,-26.7%
NS(=O)(=O)c1cccc(NC(=O)CCCC2CCCCC2)c1,4.8%
COc1cc2c(cc1OC)C(c1ccc(N)cc1)=NNC(=O)C2,-4.3%&8.9%
CCN(CC)C(=O)CSc1nnc(CCNC(=O)OC(C)(C)C)o1,-11.2%
Cc1nn(CC(=O)NCCN2CCOCC2)c(=O)c2ccccc12,5.0%
O=C(CN(Cc1ccccc1)C(=O)CCC(=O)Nc1nccs1)NCC1CCCO1 (centres undefined),-5.1%
O=C(CSc1nnc(-c2ccccn2)n1Cc1ccccc1)NC1CCCC1,-25.1%
COc1cccc(NC(=O)CS(=O)(=O)Cc2nc(-c3ccc(C)cc3)oc2C)c1,0.3%
O=S(=O)(Nc1nccs1)c1ccc(NS(=O)(=O)c2cccs2)cc1,-9.4%
CN1CCCN(C(=O)c2cccc(Br)c2)CC1,14.9%
NC(=Nc1ccc(N)cc1)C(N)=Nc1ccc(N)cc1,-10.8%
O=C(C[n+]1ccc(/C=N/O)cc1)NC(=O)Nc1ccccc1,-17.5%
Cc1cc(/C=C2/C(=O)N(C)C(=S)N2C)c(C)n1C1CC1,-11.6%
Cc1nc2cccnc2n1-c1cccc(C(=O)NCc2cccc(Cl)c2)c1,8.9%
COCCNc1cc(C)nc2cc(-c3ccc(C)cc3)nn12,-10.5%
Cc1cccc(Nc2nnc(C)c(=O)n2N)c1,0.6%
Cc1noc(C(=O)NCc2cccnc2)c1Cl,-11.8%
COC(=O)c1ccc2c(c1)NC(=O)c1ccccc1S2,8.9%
O=C1CN(C(=O)c2cnccn2)c2ccccc2N1,-17.1%
CC/C(=N\Nc1nncc2ccccc12)c1ccc(F)cc1,0.0%
O=c1cc[nH]c2cc(C(F)(F)F)ccc12,-12.6%
CC(C)Cn1c(=O)c2sccc2n2c(CCCC(=O)NCC(C)c3ccccc3)nnc12 (centres undefined),16.6%
CCOC(=O)CC(C#N)c1c[nH]c2ccccc12 (centres undefined),5.0%

# Some of these compounds in order of molecular weight, descending.
SMILES,VDR inh
CC(C)Cn1c(=O)c2sccc2n2c(CCCC(=O)NCC(C)c3ccccc3)nnc12 (centres undefined),16.6%
Cc1nc2cccnc2n1-c1cccc(C(=O)NCc2cccc(Cl)c2)c1,8.9%
CC/C(=N\Nc1nncc2ccccc12)c1ccc(F)cc1,0.0%
O=C1CN(C(=O)c2cnccn2)c2ccccc2N1,-17.1%
Cc1noc(C(=O)NCc2cccnc2)c1Cl,-11.8%
CCOC(=O)CC(C#N)c1c[nH]c2ccccc12 (centres undefined),5.0%
O=c1cc[nH]c2cc(C(F)(F)F)ccc12,-12.6%

# Further records:
SMILES,VDR inh
O=C(CC1SC(N2CCCCC2)=NC1=O)Nc1cccc(C(=O)NCc2ccccc2)c1 (centres undefined),3.4%
CC(=O)c1cc(C)ccc1OC(=O)CCN1C(=O)C2C3c4ccccc4C(c4ccccc43)C2C1=O (centres undefined),-4.0%
C=CCn1c(SCC(=O)NCC(=O)OCC)nnc1-c1cccc(OC)c1,-17.3%
COc1ccc(C(C)=O)cc1CSc1ccc(S(=O)(=O)N2CCCCC2)cn1,7.2%

# Compound activity from PubChem BioAssay.
